Screening data: PubChem, several laboratories
Mtb H37Rv = M. tuberculosis H37Rv growth inhibitors, H37Rv strain (AID 1626); inhibition, % at 10 µM, or IC50 in µM where a hit was titrated; 220,000 tested, 0.95% active; M. tuberculosis H37Rv growth inhibition; higher % means a stronger effect;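 active = confirmed in a dose series; inconclusive = inhibition above 80% but not taken into the dose series; inactive = below 80% or under 30% at every dose of the series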;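 note: bacteria incubated seven days before Alamar blue readout; 0% = bacteria only wells and 100% = bacteria with antibiotic wells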
YopH PTP inh = inhibitors of Yersinia enterocolitica YopH tyrosine phosphatase; fluorescence Ex485/Em525; inhibition, %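 (about 10 µM by stock and volumes)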; 140,000 tested, 0.16% active;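 active = inhibition of 50% or more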;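 note: controls were vehicle for no effect and minimum signal wells for full effect; inactives centre near -20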
RecA intein inh = inhibitors of M. tuberculosis RecA intein splicing; cell-free RecA intein splicing, fluorescence; 290,000 tested, 0.75% active; P9WHJ3; AID 2221; inhibition, %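 (about 9 µM by stock and volumes)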; in the data active = inhibition above about 30%; inconclusive = no clear call, values can overlap the other calls;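 note: 0% = vehicle wells and 100% = reference inhibitor control wells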
Target sequence (P9WHJ3 whole entry, looked up): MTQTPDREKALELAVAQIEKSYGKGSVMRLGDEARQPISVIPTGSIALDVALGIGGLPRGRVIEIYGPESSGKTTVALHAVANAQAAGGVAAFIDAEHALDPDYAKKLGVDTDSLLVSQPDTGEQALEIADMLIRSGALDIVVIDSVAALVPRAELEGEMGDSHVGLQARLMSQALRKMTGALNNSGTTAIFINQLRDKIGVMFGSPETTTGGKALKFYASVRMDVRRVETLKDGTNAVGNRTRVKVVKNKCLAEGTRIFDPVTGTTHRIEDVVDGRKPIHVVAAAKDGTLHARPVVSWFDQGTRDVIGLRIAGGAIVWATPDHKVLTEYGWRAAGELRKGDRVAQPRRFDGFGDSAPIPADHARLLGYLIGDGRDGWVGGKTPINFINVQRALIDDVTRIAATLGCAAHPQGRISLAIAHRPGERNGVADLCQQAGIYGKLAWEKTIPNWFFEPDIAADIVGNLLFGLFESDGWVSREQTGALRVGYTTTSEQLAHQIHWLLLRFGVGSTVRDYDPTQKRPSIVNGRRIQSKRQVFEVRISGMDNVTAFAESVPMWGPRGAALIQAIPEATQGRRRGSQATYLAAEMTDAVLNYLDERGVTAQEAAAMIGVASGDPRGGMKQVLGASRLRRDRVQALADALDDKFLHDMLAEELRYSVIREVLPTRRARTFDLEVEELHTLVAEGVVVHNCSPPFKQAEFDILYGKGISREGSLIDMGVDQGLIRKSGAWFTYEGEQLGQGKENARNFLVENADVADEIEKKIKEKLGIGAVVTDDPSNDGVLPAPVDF
Mtb betalactam = beta-lactam sensitization of Mtb H37Rv; inhibition, % at 25 µM; M. tuberculosis H37Rv growth with meropenem, percent inhibition; hits of this screen are not shown here; 330,000 tested, 0.27% active;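 active = about 74% or more and at least 40 points above the plate without the antibiotic, then above 30% in a dose series; inconclusive = first-round hits that could not be retested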;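 note: growth measured after seven days incubation then overnight dye step; 0% = bacteria only wells and 100% = bacteria with antibiotic; twin plates without the antibiotic show which effects depend on it; some results filed as inactive read as strong as hits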
Arbovirus anti = blocks arbovirus infection. arbovirus infection cell-based antiviral screen. inhibition, % at 10 µM. 200,000 tested, 0.37% active. AID 1251;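 active = inhibition from about 30%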;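 note: bluetongue infection of BSR cells; cell survival read as ATP light after 72 h; 0% = infected wells without compound and 100% = uninfected wells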
Arbovirus anti repeat = further read-out of Arbovirus anti, marked with its call; inhibition, %; measured here: 10K subset replicate screen; many hits read low in the repeat;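 first of two repeat runs on a subset; 0% = infected and 100% = uninfected wells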
An asterisk follows results filed as active; ? = inconclusive; nt = no result given. Only part of the results is shown. The share of hits here may be higher or lower than overall.

SMILES	Mtb H37Rv	YopH PTP inh	RecA intein inh	Mtb betalactam	Arbovirus anti	others
COc1cc(C(=O)NCC(=O)N/N=C\C(C)=C/c2ccccc2)cc(OC)c1OC	nt	nt	-0.6	7	nt
Cc1ccc(N2CCN(C(=O)NC3CCCCC3)CC2C)cc1 (stereo not given)	-4%	nt	1.4	-1	nt
O=C(Nc1ccc(N2CCOCC2)c(Cl)c1)c1cccnc1	0%	-153	-2.5	-3	4
CC(C)Oc1cccc(C(=O)C2CCCN(Cc3cccn3-c3cccnc3)C2)c1 (stereo not given)	1%	nt	4.1	-1	nt
Cc1ccc(NC(=S)NNC(=S)NC2CCCCC2)cc1	9%	nt	-1.0	1	0
Cc1onc(-c2ccccc2)c1C(=O)N1CCc2ccccc21	2%	-43	-0.3	8	-3
COc1ccc(Cl)cc1-c1nc(-c2ccc(NC(=O)c3cccs3)cc2)no1	16%	-16	-0.3	1	-22
COc1ccc(S(=O)(=O)Nc2cc(S(=O)(=O)c3ccccc3)c(O)cc2C)cc1	nt	nt	-5.2	-3	nt
COc1ccc(/C=N/NC(=O)c2ccc3nc[nH]c3c2)c(OC)c1OC	4%	nt	1.6	-3	nt
CCOc1ccc(/C=C/C(=O)Oc2ccc(OC)cc2)cc1	nt	nt	1.4	95	nt
O=C(c1ccccc1)c1ccccc1C(=O)N1CCOCC1	-2%	17	-1.9	?	7
CCc1ccc(-c2nnn(Cc3nn[nH]n3)n2)cc1	-24%	-28	2.6	-23	1
O=C(N/N=C/c1ccc(OCc2ccccc2)cc1)c1ccncc1	?	nt	-0.7	-4	1
Cc1ccc(-c2nnc(SCC(N)=O)n2C)cc1	-3%	nt	1.8	0	-1
Fc1ccc(Cn2nnnc2CN2CCC(n3nnc4cc(C(F)(F)F)ccc43)CC2)cc1	14%	nt	2.6	0	nt
Cc1nn(CCC(=O)NNC(=S)Nc2ccc(F)cc2)c(C)c1Br	2%	-10	-1.3	0	-9
CN(C)CCCn1c(SCc2ccc(Cl)cc2)nnc1-c1ccncc1	nt	nt	0.0	6	nt
CCOc1cc(/C=C2\NC(=O)NC2=O)cc([N+](=O)[O-])c1O	-7%	nt	-2.3	-3	nt
Cc1ccc(C)c(C(=O)O/N=C(\N)c2ccc(Br)cc2)c1	2%	2	0.7	-9	0
COc1ccc(NC(=O)CNS(=O)(=O)c2ccc(Cl)cc2)cc1	6%	-10	-2.1	9	0
O=C(CCCOc1ccc(Cl)cc1Cl)N1CCCc2ccccc21	13%	7	-0.1	43	-5
COc1ccc(-n2c(O)c(C(C)=NCCc3c[nH]c4ccccc34)c(=O)[nH]c2=O)cc1	-5%	nt	nt	-12	nt
COC(=O)c1ccc(C2NC(=O)CCC2[N+](=O)[O-])cc1 (stereo not given)	nt	nt	-0.6	-7	nt
Cc1occc1C(=O)NNC(=O)C1CCCCC1	4%	-6	-2.2	2	15
N#Cc1c(N)c(C(=O)c2ccc(Cl)cc2)n2c1CCC2	-3%	-39	-0.6	-9	6

Reprinted from above, 3 compounds:
SMILES	Mtb H37Rv	YopH PTP inh	RecA intein inh	Mtb betalactam	Arbovirus anti	others
COc1cc(C(=O)NCC(=O)N/N=C\C(C)=C/c2ccccc2)cc(OC)c1OC	nt	nt	-0.6	7	nt
Cc1ccc(N2CCN(C(=O)NC3CCCCC3)CC2C)cc1 (stereo not given)	-4%	nt	1.4	-1	nt
O=C(Nc1ccc(N2CCOCC2)c(Cl)c1)c1cccnc1	0%	-153	-2.5	-3	4

Looked up by compound from the list above (4):
SMILES	Mtb H37Rv	YopH PTP inh	RecA intein inh	Mtb betalactam	Arbovirus anti	others
CN(C)CCCn1c(SCc2ccc(Cl)cc2)nnc1-c1ccncc1	nt	nt	0.0	6	nt
Cc1ccc(-c2nnc(SCC(N)=O)n2C)cc1	-3%	nt	1.8	0	-1
COC(=O)c1ccc(C2NC(=O)CCC2[N+](=O)[O-])cc1 (stereo not given)	nt	nt	-0.6	-7	nt
O=C(CCCOc1ccc(Cl)cc1Cl)N1CCCc2ccccc21	13%	7	-0.1	43	-5

(continued)
SMILES	Mtb H37Rv	YopH PTP inh	RecA intein inh	Mtb betalactam	Arbovirus anti	others
O=C(O)c1ccc(-n2cccn2)nc1	-4%	nt	0.0	-4	1
C=CCn1c(-c2ccc(OC)c(OC)c2)n[nH]c1=S	-7%	-18	-1.3	11	-4
CCOC(=O)C(C)Sc1nc2ccccc2c(=O)n1CC (stereo not given)	-3%	-15	nt	13	-4
CCc1c(C)nc(SCC(=O)CC(=O)OC(C)C)c(C#N)c1C	-3%	-20	-2.5	4	-1
Cc1ccc(-c2nn(-c3ccccc3)cc2C(=O)N2CCN(c3ccccn3)CC2)cc1	38%	nt	8.6	91	-14
CS(=O)(=O)N(CC(=O)N1CCN(c2ccccc2)CC1)c1ccc(Cl)c(C(F)(F)F)c1	-4%	5	3.0	10	11
Cc1ccc(S(=O)(=O)N2CCC(C(=O)O)CC2)cc1C(=O)O	-3%	-39	nt	-8	-3
CCOC(=O)CSc1nc(C2CC2)nc2ccccc12	-2%	-34	3.4	2	-1
Cc1[nH]c2ccccc2c1C(=O)CN1CCN(C2CCCCC2)CC1	-7%	-32	nt	nt	-2
COC(=O)c1ccccc1NC(=O)c1cc2n(n1)C(C(F)F)CC(C(F)F)N2 (stereo not given)	4%	8	-0.9	3	-11
CC(C)NC(=O)c1cc2ccccc2o1	-12%	32	-1.2	1	-10
Cc1nn(C(C)C)c(C)c1CN1CCN(Cc2ccsc2)C(CCO)C1 (stereo not given)	5%	nt	2.1	1	-2
COc1ccc(CCN(C)CCc2ccc(OC)c(OC)c2)cc1OC	-10%	nt	0.6	3	nt
COc1ccc(S(=O)(=O)c2c(C)c(NS(=O)(=O)c3ccccc3)cc(C)c2O)cc1	7%	nt	2.4	-6	-23
O=C(COc1ccc(Br)cc1Cl)c1ccc[nH]1	0%	nt	5.7	2	-4
O=C(N1CCOCC1)C12CC3CC(C1)CC(C(=O)N1CCOCC1)(C3)C2	-1%	-28	-4.0	-1	9
O=C(CNC(=O)c1ccccc1Cl)NC1CCN(Cc2ccccc2)CC1	nt	nt	0.1	-6	nt
C/C(=N\OC(=O)c1ccc(F)cc1)c1sc(-c2ccc(Cl)cc2)nc1C	nt	nt	3.8	-6	nt
CCOc1cccc2c1OC1(C)CC2NC(=O)N1c1cccc(Cl)c1 (stereo not given)	-19%	-21	0.1	5	6	Arbovirus anti repeat=-4
CCOc1cc(/C=N/Nc2nc(=O)[nH]nc2C)ccc1O	3%	nt	-6.0	-1	15
C=CCOc1ccc(/C=C2\N=C(C)OC2=O)cc1OC	-1%	nt	-0.2	-11	nt
Cn1c(=O)c2c(nc(SCC(=O)NCc3ccc4c(c3)OCO4)n2Cc2ccc(F)cc2)n(C)c1=O	14%	-14	2.3	-6	-4
CS(=O)(=O)Oc1ccc(Br)cc1/C=C1/N=C(c2ccco2)OC1=O	-6%	14	-1.0	4	-1
O=C(CCNS(=O)(=O)c1ccccc1)N1CCOCC1	nt	nt	-4.2	-9	nt
CCCn1nc(NC(C)=O)c2cc3cccc(C)c3nc21	nt	nt	-35	6	nt
Remaining list, next part:
SMILES	Mtb H37Rv	YopH PTP inh	RecA intein inh	Mtb betalactam	Arbovirus anti	others
CN(C)Cc1cc(C(C)(C)C)c(O)c(C(C)(C)C)c1	-11%	-39	nt	-1	8	Arbovirus anti repeat=7
O=C(Nc1cccnc1)c1cc(-c2ccccc2)on1	2%	-28	0.1	-7	-7
COc1ccc(-n2ncc3c(N4CCCc5ccccc54)ncnc32)cc1	nt	-12	nt	nt	15
Cc1ccc2c(CC(=O)OC(C)C(=O)Nc3ncc(Cl)cc3Cl)coc2c1 (stereo not given)	-9%	-26	-7.1	-2	4
COC(=O)C1=C(C(=O)OC)[C@@H]2N(C)c3ccccc3[C@@]23C[C@@H](CO)N(C(=O)C2CCC2)C3=N1	8%	nt	0.6	-9	nt
COc1ccc(-c2cc(N)n(S(=O)(=O)c3ccc(F)cc3)n2)cc1OC	-2%	-24	11	-4	-4
CSc1sc(C(=O)NNC(C)=O)c2c1C=CCC2	-4%	nt	3.8	-5	nt
COc1ccc(Cn2c(=O)[nH]c3cc(C(=O)NCCCN4CCCC4)ccc3c2=O)cc1	nt	-10	-1.2	10	-9
CC1CCCCN1C(=O)C1CCN(c2nc(-c3ccccc3)nc3c2CCC3)CC1 (stereo not given)	nt	nt	5.9	3	nt
Cc1cc2cc(C)c3nnc(SCC(=O)N4CCc5ccccc54)n3c2cc1C	-9%	-46	nt	nt	-14
O=C(O)CCCNc1c(C(=O)Nc2ccc(Cl)cc2)cc([N+](=O)[O-])cc1[N+](=O)[O-]	8%	nt	1.2	-2	20
COc1ccc(NC(=O)c2ccc(C(=O)c3ccccc3)o2)cc1	11%	-22	nt	-5	10
CCn1c(=N)n(CC(O)COc2cccc(C)c2)c2ccccc21 (stereo not given)	0%	33	1.6	7	0
Cc1nn(Cc2ccc(F)cc2)c(Cl)c1/C=N/NC(=O)c1ccccc1	2%	nt	-0.9	-7	-16
Cc1cc2nc3c(c(=O)n2[nH]1)CCCC3	-5%	-29	-0.4	-3	3	Arbovirus anti repeat=4
O=C(COc1ccccc1)Nc1ccc(N2CCCCC2)cc1	nt	nt	0.4	-3	nt
O=C(Cc1ccccc1)NC(Cc1ccc(Cl)cc1)C(=O)O (stereo not given)	-10%	nt	1.4	-5	nt
CC(C)Cc1ccc(C(C)NC(=O)c2ccc(=O)[nH]c2)cc1 (stereo not given)	0%	nt	2.2	-9	4
CC(=O)c1ccc(OCCCC(=O)N2CCN(S(=O)(=O)c3ccc(C(C)C)cc3)CC2)cc1	nt	nt	-2.0	-14	nt
COc1cccc(N2CCN(CC(=O)NC3=Nc4ccccc4N=C(C)C3c3ccccc3)CC2)c1 (stereo not given)	-5%	nt	3.7	-3	nt
CCCc1cc(C(=O)N2CCCC(C(=O)c3cccc4ccccc34)C2)n(C)n1 (stereo not given)	5%	nt	0.8	-4	-2
Cc1ccc(S(=O)(=O)Nc2cc(-c3ccccc3)nn2C)cc1	-6%	nt	3.1	-9	nt
COc1ccc(OC)c(CNC(=O)Cc2c(C(=O)O)[nH]c3ccccc23)c1	-3%	-42	-1.4	-12	6	Arbovirus anti repeat=-1
CCc1ccccc1NC(=O)CNC(=O)c1ccc(-n2cncn2)c([N+](=O)[O-])c1	nt	nt	-5.8	0	nt
Cc1cc(C)c(C2=Nn3c(C)nnc3SC2C)cc1C (stereo not given)	nt	nt	2.5	-2	nt
Remaining list, next part:
SMILES	Mtb H37Rv	YopH PTP inh	RecA intein inh	Mtb betalactam	Arbovirus anti	others
CC1=NN(C(=O)c2ccoc2C)C(O)(C(F)(F)F)C1 (stereo not given)	-7%	nt	1.2	-11	nt
COc1ccc(NC(=O)c2cc(-c3ccc4c(c3)OCO4)on2)cc1	nt	nt	2.0	7	nt
Cc1cc(=O)oc2c3c(cc(OCC(=O)NCc4ccncc4)c12)OC(C)(C)CC3	nt	nt	-3.9	3	nt
COc1ccccc1N(C(=O)Cn1nnc(-c2ccc(C)o2)n1)C(C(=O)NC1CCCC1)c1ccncc1 (stereo not given)	nt	nt	1.0	0	nt
COc1ccc(C(=O)c2cc([N+](=O)[O-])ccc2N2CCCC2)cc1	5%	-10	-1.1	8	-11
COc1ccc(/C=N/N=C2\SCC(=O)N2c2c(C)n(C)n(-c3ccccc3)c2=O)cc1OC	10%	1	2.2	0	-27
Cc1cccc(NC(=O)CNC(=O)COc2ccc(-c3ccc(C#N)cc3)cc2)c1C	8%	-17	-3.1	-5	-11
COc1ccccc1CNC(=O)CN(c1cccc([N+](=O)[O-])c1)S(C)(=O)=O	-1%	nt	0.8	-1	2
COc1ccc(OCC(=O)OCCN2C(=O)c3ccccc3C2=O)cc1	-3%	-15	-2.0	6	10	Arbovirus anti repeat=5
CCN1CCN(C(=O)c2ccc(C(F)(F)F)cc2)CC1	7%	nt	-2.3	-3	6
CC(C)(C)NC(=O)CSC(=Nc1cccc(F)c1)NC#N	-9%	-41	9.3	57	-1
CON(C)S(=O)(=O)c1ccc2c(c1)N(Cc1ccc(C)cc1)C(=O)C1CCCN21 (stereo not given)	-1%	nt	-2.0	-2	9
CSC1=NSC2=NC(=O)/C(=C\c3ccc(OC(=O)c4ccco4)cc3)C(=N)N12	nt	nt	-0.2	99	nt
CCC(C)(C)n1nnnc1C(CC(C)C)N1CCC(C(N)=O)CC1 (stereo not given)	0%	-18	-0.8	-5	2
Cc1cccc(OCC(=O)Nc2nnc(-c3ccco3)s2)c1	-4%	nt	-1.8	-1	-1
Cc1cc(C(=O)OCC(=O)NC(=O)NC(C)(C)C)c(C)o1	0%	8	0.4	-12	6
Cc1c(Cc2ccccc2)c(=O)oc2cc(OCC(=O)NCC(O)c3ccccc3)ccc12 (stereo not given)	nt	nt	0.6	-4	nt
COc1ccccc1C(=O)NNC(=O)c1ccc(NS(=O)(=O)c2cccs2)cc1	nt	nt	-1.3	-19	nt
